DUX4 inh = blocks DUX4-driven transcriptional activation; 293T-iDUX4 ZSCAN4-Gaussia luciferase reporter, 24 h; hits give low values; activity change, negative = inhibition, % (concentration not given with the values); 0.8% of 37,000 active;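 active = -10% or lower and over 25 points stronger than a control reporter; inconclusive = -10% or lower with a smaller gap; inactive = above -10%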;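 note: 0% = median of neutral control wells and -100% = median of positive control wells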
DUX4 inh difference = recorded beside DUX4 inh, whose call it bears; Gaussia minus Italica difference, %; measured here: selective DUX4 reporter inhibition;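 worked out from the two reporters; negative = selective loss of the DUX4 reporter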
DUX4 inh control = also measured in DUX4 inh; calls as there; activity change, negative = inhibition, %; measured here: Italica tet-on control reporter;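 0 = neutral control and -100 = positive control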
* = called active by the depositor. Only part of the results is shown. The share of hits here may be higher or lower than overall.

CCCNC(=O)C[C@@H]1CC[C@@H]2[C@H](COC[C@H](O)CN2C(=O)Nc2ccc(Cl)c(Cl)c2)O1 was read as DUX4 inh 5, DUX4 inh difference -1 and DUX4 inh control 5.6.
`O=C(C1CCOCC1)N1CC2(C1)[C@H](c1ccccc1)[C@@H](CO)N2C(=O)CC1CC1` gave DUX4 inh -5, DUX4 inh difference -20 and DUX4 inh control 16.
COc1ccc(NC(=O)N2CC3(C2)CN(C(C)=O)[C@@H](CO)c2[nH]c4cc(OC)ccc4c23)cc1 was read as DUX4 inh 12, DUX4 inh difference 1 and DUX4 inh control 11.
Screening COc1ccccc1-c1ccccc1[C@@H]1[C@@H](C#N)N(C(=O)C2CCOCC2)[C@H]1CO returned DUX4 inh -1, DUX4 inh difference 1 and DUX4 inh control -1.7.
`COc1ccccc1CNC(=O)C[C@@H]1C[C@@H]2c3cc(NC(=O)c4ccc5c(c4)OCO5)ccc3O[C@@H]2[C@@H](CO)O1` gave DUX4 inh -7, DUX4 inh difference -2 and DUX4 inh control -5.1.
For C[C@H](CO)N1C[C@H](C)[C@@H](CN(C)C(=O)Nc2ccccc2)OCCCC[C@H](C)Oc2ccc(NC(=O)Nc3ccccc3)cc2C1=O the results were DUX4 inh 1, DUX4 inh difference 0 and DUX4 inh control 1.2.
CC(C)NC(=O)Nc1ccc2c(c1)CC(=O)N([C@@H](C)CO)C[C@H](C)[C@@H](CN(C)Cc1ccncc1)O2 was read as DUX4 inh 0, DUX4 inh difference 3 and DUX4 inh control -3.4.
CO[C@@H](CN(C)C(=O)C1CCOCC1)[C@@H](C)CN([C@H](C)CO)S(=O)(=O)c1ccccc1 was read as DUX4 inh -1, DUX4 inh difference 0 and DUX4 inh control -0.7.
Screening C[C@H](CO)N1C[C@H](C)[C@H](CN(C)CC2CCCCC2)OCCCC[C@H](C)Oc2ccc(NC(=O)CCCCCC(=O)Nc3ccccc3N)cc2C1=O returned DUX4 inh 3, DUX4 inh difference 0 and DUX4 inh control 3.3.
Screening COc1cccc(NC(=O)N[C@H]2C=C[C@@H](CC(=O)Nc3ccc(-c4ccccc4)cc3)O[C@@H]2CO)c1 returned DUX4 inh 1, DUX4 inh difference 4 and DUX4 inh control -3.3.
Screening CCCC(=O)Nc1ccc2c(c1)C(=O)N(C)C[C@@H](OC)[C@H](C)CN(C(=O)c1ccccn1)[C@@H](C)CO2 returned DUX4 inh -3, DUX4 inh difference 0 and DUX4 inh control -2.6.
Screening O=C(c1ccccc1)N1CC(=O)N2[C@@H](CO)[C@@H](c3ccc(C#CC4CC4)cc3)[C@@H]2C1 returned DUX4 inh -4, DUX4 inh difference 1 and DUX4 inh control -4.6.
Screening O=C(Nc1ccccc1)[C@@H]1[C@@H](CO)[C@@H]2Cn3c(ccc(C4=CCCCC4)c3=O)[C@@H]2N1Cc1cocn1 returned DUX4 inh -7, DUX4 inh difference -3 and DUX4 inh control -3.3.
`C[C@@H]1CN([C@H](C)CO)C(=O)c2cccc(N(C)C)c2O[C@@H]1CN(C)S(=O)(=O)c1cn(C)cn1` gave DUX4 inh -2, DUX4 inh difference -3 and DUX4 inh control 0.2.
CCNC(=O)[C@@H]1[C@@H](CO)[C@@H]2Cn3c(ccc(C4=CCCC4)c3=O)[C@@H]2N1CC1CC1 was read as DUX4 inh 6, DUX4 inh difference 0 and DUX4 inh control 5.5.

Ordered by molecular weight (smallest number first): 3 of the compounds above
CO[C@@H](CN(C)C(=O)C1CCOCC1)[C@@H](C)CN([C@H](C)CO)S(=O)(=O)c1ccccc1 was read as DUX4 inh -1, DUX4 inh difference 0 and DUX4 inh control -0.7.
Screening COc1cccc(NC(=O)N[C@H]2C=C[C@@H](CC(=O)Nc3ccc(-c4ccccc4)cc3)O[C@@H]2CO)c1 returned DUX4 inh 1, DUX4 inh difference 4 and DUX4 inh control -3.3.
`COc1ccccc1CNC(=O)C[C@@H]1C[C@@H]2c3cc(NC(=O)c4ccc5c(c4)OCO5)ccc3O[C@@H]2[C@@H](CO)O1` gave DUX4 inh -7, DUX4 inh difference -2 and DUX4 inh control -5.1.

Continuation.
For COc1cccc(NC(=O)Nc2ccc3c(c2)C(=O)N(C)C[C@@H](OC)[C@@H](C)CN[C@H](C)CO3)c1 the results were DUX4 inh 9, DUX4 inh difference 3 and DUX4 inh control 6.2.
CCC(=O)N1CCC2(CC1)CN[C@@H](CO)c1c2c2ccc(OC)cc2n1C was read as DUX4 inh 12, DUX4 inh difference 16 and DUX4 inh control -3.9.
O=C(Nc1ccccc1)N1CCCCN2[C@H](C1)[C@H](c1ccc(C3=CCCCC3)cc1)[C@@H]2CO was read as DUX4 inh 5, DUX4 inh difference -5 and DUX4 inh control 9.9.
C[C@@H]1CCCCO[C@@H](CN(C)C(=O)NC2CCCCC2)[C@H](C)CN([C@@H](C)CO)C(=O)c2cc(NC(=O)CCC(F)(F)F)ccc2O1 was read as DUX4 inh -2, DUX4 inh difference 0 and DUX4 inh control -1.7.
`COCC(=O)Nc1ccc2c(c1)C(=O)N(C)C[C@H](OC)[C@@H](C)CN(Cc1cccc(F)c1)[C@H](C)CO2` gave DUX4 inh 1, DUX4 inh difference -3 and DUX4 inh control 3.9.
C[C@@H]1CCCCO[C@@H](CN(C)C(=O)c2ccccc2)[C@@H](C)CN([C@@H](C)CO)C(=O)c2cc(NC(=O)C3CCCCC3)ccc2O1 was read as DUX4 inh 1, DUX4 inh difference -3 and DUX4 inh control 4.2.
For C[C@H]1CN([C@@H](C)CO)C(=O)CCCn2cc(nn2)CO[C@H]1CN(C)Cc1ccc(C(=O)Nc2ccccc2N)cc1 the results were DUX4 inh inconclusive.
`CO[C@H]1CN(C)C(=O)c2ccc(NC(=O)Nc3ccc4c(c3)OCO4)cc2OC[C@@H](C)NC[C@@H]1C` gave DUX4 inh -7, DUX4 inh difference -15 and DUX4 inh control 8.5.
CCCC#Cc1ccc2c(c1)[C@@H]1[C@@H](CCN1S(=O)(=O)c1ccc(F)cc1)[C@H](CO)N2 was read as DUX4 inh -10, DUX4 inh difference -13 and DUX4 inh control 3.3.
`CC(C)(C)[S@](=O)N1Cc2cc(C(=O)N3CCOCC3)nc(-c3cccc(C4=CCCC4)c3)c2[C@@H]1CCO` gave DUX4 inh -1, DUX4 inh difference 2 and DUX4 inh control -2.8.
C[C@H]1CN([C@@H](C)CO)C(=O)Cc2cc(NC(=O)C3CC3)ccc2O[C@@H]1CN(C)S(=O)(=O)c1cn(C)cn1 was read as DUX4 inh 2, DUX4 inh difference 0 and DUX4 inh control 1.7.
`CN1C(=O)c2cc(NC(=O)c3ccccc3F)ccc2OC[C@@H]2O[C@H](CC(=O)NCc3ccc4c(c3)OCO4)CC[C@H]21` gave DUX4 inh -2, DUX4 inh difference -6 and DUX4 inh control 3.7.
Screening CN1CCN(C(=O)C[C@H]2C=C[C@H](NC(=O)Cc3ccccn3)[C@H](CO)O2)CC1 returned DUX4 inh -9, DUX4 inh difference -7 and DUX4 inh control -2.6.
Screening COCCNC(=O)C[C@H]1CC[C@@H]2[C@H](COC[C@H](O)CN2C(=O)c2cc(Cl)cc(Cl)c2)O1 returned DUX4 inh 8, DUX4 inh difference 3 and DUX4 inh control 5.7.
`O=C(CCN1CCCCC1)N[C@@H]1CC[C@H](CCn2cc(-c3cccc(F)c3)nn2)O[C@H]1CO` gave DUX4 inh 6, DUX4 inh difference 7 and DUX4 inh control -0.4.

Fetched one by one from the list above:
Screening O=C(Nc1ccccc1)[C@@H]1[C@@H](CO)[C@@H]2Cn3c(ccc(C4=CCCCC4)c3=O)[C@@H]2N1Cc1cocn1 returned DUX4 inh -7, DUX4 inh difference -3 and DUX4 inh control -3.3.
COc1ccc(NC(=O)N2CC3(C2)CN(C(C)=O)[C@@H](CO)c2[nH]c4cc(OC)ccc4c23)cc1 was read as DUX4 inh 12, DUX4 inh difference 1 and DUX4 inh control 11.

(cont.)
For COCC(=O)N1[C@H](CO)[C@@H]2c3ccccc3N(C)C[C@@H]21 the results were DUX4 inh -4, DUX4 inh difference -4 and DUX4 inh control 0.1.
For C/C=C/c1ccc([C@H]2[C@@H](CO)N(CC3CCCC3)[C@H]2CNC(=O)NC(C)C)cc1 the results were DUX4 inh 0, DUX4 inh difference 1 and DUX4 inh control -1.5.
For COc1cccc(CN2[C@H](CO)[C@H](c3ccccc3)C23CN(C(=O)C2CC2)C3)c1 the results were DUX4 inh -6, DUX4 inh difference -1 and DUX4 inh control -5.0.
`O=C(C[C@@H]1C[C@H]2c3cc(NS(=O)(=O)c4ccccc4)ccc3O[C@H]2[C@@H](CO)O1)NCC1CC1` gave DUX4 inh 0, DUX4 inh difference -2 and DUX4 inh control 1.8.
COc1ccc2c3c([nH]c2c1)[C@H](CO)N(C(C)=O)CC31CCN(Cc2cc(-c3ccccc3)on2)CC1 was read as DUX4 inh 2, DUX4 inh difference -3 and DUX4 inh control 4.2.
Screening CCCN1C[C@H](C)[C@@H](OC)CN(C)C(=O)c2cc(NC(=O)NC3CCCCC3)ccc2OC[C@H]1C returned DUX4 inh -3, DUX4 inh difference 0 and DUX4 inh control -3.0.
C[C@H](CO)N1C[C@H](C)[C@H](CN(C)C(=O)Cc2ccccn2)Oc2ncc(/C=C/c3ccccc3)cc2C1=O was read as DUX4 inh 4, DUX4 inh difference -4 and DUX4 inh control 8.3.
For COc1ccc2c3c([nH]c2c1)[C@H](CO)N(Cc1nccs1)CC31CN(Cc2cccnc2)C1 the results were DUX4 inh 10, DUX4 inh difference -4 and DUX4 inh control 14.
`CCN1[C@H](C(=O)NCc2cccc(OC)c2)[C@@H](CO)[C@@H]2Cn3c(ccc(C4=CCCC4)c3=O)[C@@H]21` gave DUX4 inh -5, DUX4 inh difference -20 and DUX4 inh control 16.
CN(C)CC(=O)N1CC2(C1)[C@H](c1ccccc1)[C@H](CO)N2S(=O)(=O)c1ccccc1 was read as DUX4 inh -3, DUX4 inh difference -2 and DUX4 inh control -0.9.
Screening C[C@H](CO)N1C[C@H](C)[C@H](CN(C)S(=O)(=O)c2cn(C)cn2)Oc2c(NC(=O)Nc3ccc(C(F)(F)F)cc3)cccc2C1=O returned DUX4 inh -2, DUX4 inh difference -1 and DUX4 inh control -1.9.
`C[C@H]1CN([C@@H](C)CO)S(=O)(=O)c2ccc(C#Cc3ccccc3F)cc2O[C@@H]1CN(C)C(=O)c1ccc2c(c1)OCO2` gave DUX4 inh 0, DUX4 inh difference -6 and DUX4 inh control 6.0.
For CN(C)C(=O)c1cccc(-c2ccc([C@@H]3[C@H]4CN(CC5CCOCC5)CCCCN4[C@H]3CO)cc2)c1 the results were DUX4 inh 6, DUX4 inh difference 22 and DUX4 inh control -16.
`C[C@H]1CN([C@@H](C)CO)C(=O)c2ccccc2-c2ccccc2CO[C@@H]1CN(C)C(=O)CCN(C)C` gave DUX4 inh 0, DUX4 inh difference -3 and DUX4 inh control 2.6.
C/C=C/c1ccccc1[C@@H]1[C@@H](CO)N(c2ncc(CC)s2)[C@H]1C#N was read as DUX4 inh 9, DUX4 inh difference 10 and DUX4 inh control -1.0.

The final 4 entries of the section before are carried over, then new ones follow.
`C[C@H]1CN([C@@H](C)CO)S(=O)(=O)c2ccc(C#Cc3ccccc3F)cc2O[C@@H]1CN(C)C(=O)c1ccc2c(c1)OCO2` gave DUX4 inh 0, DUX4 inh difference -6 and DUX4 inh control 6.0.
For CN(C)C(=O)c1cccc(-c2ccc([C@@H]3[C@H]4CN(CC5CCOCC5)CCCCN4[C@H]3CO)cc2)c1 the results were DUX4 inh 6, DUX4 inh difference 22 and DUX4 inh control -16.
`C[C@H]1CN([C@@H](C)CO)C(=O)c2ccccc2-c2ccccc2CO[C@@H]1CN(C)C(=O)CCN(C)C` gave DUX4 inh 0, DUX4 inh difference -3 and DUX4 inh control 2.6.
C/C=C/c1ccccc1[C@@H]1[C@@H](CO)N(c2ncc(CC)s2)[C@H]1C#N was read as DUX4 inh 9, DUX4 inh difference 10 and DUX4 inh control -1.0.
For O=S(=O)(N[C@@H]1CC[C@@H](CCn2cc(Cc3ccccc3)nn2)O[C@H]1CO)c1ccccc1F the results were DUX4 inh -2, DUX4 inh difference 5 and DUX4 inh control -7.7.
`COc1ccc2c3c(n(C)c2c1)[C@H](CO)N(Cc1cccc(F)c1)CC31CCN(C(=O)Cc2ccccc2)CC1` gave DUX4 inh inconclusive.
COc1ccc2c3c(n(C)c2c1)[C@@H](CO)N(C(=O)C1CCOCC1)CC31CCN(C(=O)c2ccncc2)CC1 was read as DUX4 inh 21, DUX4 inh difference 13 and DUX4 inh control 8.1.
O=C1CCCc2cnnn2COC[C@@H](c2ccccc2)N1 was read as DUX4 inh 1, DUX4 inh difference 3 and DUX4 inh control -1.2.
CC(C)CC#Cc1ccc([C@H]2[C@H]3CN(C(=O)Nc4cc(F)ccc4F)CC(=O)N3[C@H]2CO)cc1 was read as DUX4 inh 1, DUX4 inh difference -3 and DUX4 inh control 3.8.
Screening C[C@H](O)C#Cc1ccc([C@H]2[C@H]3CN(S(=O)(=O)c4ccccc4)CCCCN3[C@H]2CO)cc1 returned DUX4 inh 2, DUX4 inh difference 4 and DUX4 inh control -2.4.
`O=C(Nc1ccc(F)cc1)N1CC(=O)N2[C@H](CO)[C@H](c3ccc(C#CC4CC4)cc3)[C@H]2C1` gave DUX4 inh 6, DUX4 inh difference 9 and DUX4 inh control -2.2.
For C[C@@H]1CN([C@H](C)CO)C(=O)CCCn2nncc2CO[C@H]1CN(C)C(=O)Nc1ccc(-c2cccs2)cc1 the results were DUX4 inh 2, DUX4 inh difference 1 and DUX4 inh control 0.3.

Source: PubChem BioAssay
